# Vaccinia mCherry: vaccinia inhibition (mCherry reporter). Potency, µM (series often up to 36.5 µM), for inactives: top-dose activity change, negative = inhibition, hits mostly inhibitors. 310,000 tested, 0.63% active. Vaccinia virus mCherry reporter infection, fluorescence; about a quarter of the inactives have no number; active = well fitted inhibition curve with a large enough effect; inconclusive = small, poorly fitted or top-dose-only effect; inactive = no such curve, though single readings can be large or run the other way; tested in A549 cells; note: nearly all actives have a fitted effect of over 35% in size; inactives centre near -10
# Vaccinia Venus: inhibitors of vaccinia virus (Venus reporter). Potency, µM (titrated, usually from 36.5 µM), for inactives: at the top dose activity change, negative = inhibition, most hits filed as inhibitors. Vaccinia virus Venus reporter expression, fluorescence. 330,000 tested, 0.46% active; active means well fitted inhibition curve with a large enough effect; inconclusive means small, poorly fitted or top-dose-only effect; inactive means no such curve, though single readings can be large or run the other way; tested in A549 cells; note: nearly all actives have a fitted effect of over 30% in size; inactives centre near -10
# Starred values were filed as active, the others as inactive; i = inactive; ? = inconclusive; / = no result given; & = joins results of further samples; [ ] = remark or other dose. % is set by controls: 0 for no effect and ±100 for the full control effect; potency is the fitted concentration of half-maximal effect.
# Sample of the layout:
SMILES,Vaccinia mCherry,Vaccinia Venus
C=CC[C@@H](CC(=O)N[C@@H](CO)Cc1ccccc1)C(=O)N[C@@H](COC(=O)[C@H](CC=C)CC(=O)OC(C)(C)C)Cc1c[nH]c2ccccc12,i,?
CCn1c(C)c(C(C)=O)c(SC)nc1=S,/,10%
O=C(Nc1ncc(Cc2ccc(Cl)cc2)s1)c1ccc2c(c1)CC(c1ccccc1)OC2=O (centres undefined),?,?
Cc1cc(Cl)ccc1NC(=O)COC(=O)c1nc2nccc(C)n2n1,i,-21%
CCN(CC)S(=O)(=O)c1ccc(C)c(NC(=O)COc2ccc3c(C)cc(=O)oc3c2)c1,i,-6%
COc1ccc(CC(=O)NCc2ccccc2F)cc1S(=O)(=O)N1CCOCC1,i,-1%

# All compounds of this part, from the start:
SMILES,Vaccinia mCherry,Vaccinia Venus
C=CC[C@@H](CC(=O)N[C@@H](CO)Cc1ccccc1)C(=O)N[C@@H](COC(=O)[C@H](CC=C)CC(=O)OC(C)(C)C)Cc1c[nH]c2ccccc12,i,?
CCn1c(C)c(C(C)=O)c(SC)nc1=S,/,10%
O=C(Nc1ncc(Cc2ccc(Cl)cc2)s1)c1ccc2c(c1)CC(c1ccccc1)OC2=O (centres undefined),?,?
Cc1cc(Cl)ccc1NC(=O)COC(=O)c1nc2nccc(C)n2n1,i,-21%
CCN(CC)S(=O)(=O)c1ccc(C)c(NC(=O)COc2ccc3c(C)cc(=O)oc3c2)c1,i,-6%
COc1ccc(CC(=O)NCc2ccccc2F)cc1S(=O)(=O)N1CCOCC1,i,-1%
COc1ccccc1N1CCN(Cc2nc3ccsc3c(=O)[nH]2)CC1,/,-8%
CCOc1ccc(NC(=O)CN(C)C(=O)CCNC(=O)c2ccccc2Cl)cc1OCC,-1%,-15%
CC(C)CCNC(=O)CCn1nc(-c2ccccc2)ccc1=O,-11%,-10%
CCCCCCCC(=O)N/N=C/c1cccnc1,-5%,-25%
COc1ccc(-c2n[nH]c(=S)n2Cc2ccccc2)cc1OC,-18%,-23%
CSc1nc(C)c(Cl)c(C)c1C#N,-9%,-4%
C[N+](C)(C)CCCC(=O)c1ccc2c(c1)OCO2,i,-15%
CSc1ccc(CCNS(=O)(=O)c2ccc3c(c2)C(C)(C)C(=O)N3C)cc1,-5%,-6%
CCCOc1cccc(C(=O)N(Cc2ccccc2)C2CCS(=O)(=O)C2)c1 (centres undefined),-9%,-3%
Cc1cc(C)cc(OCC(=O)OCC(=O)Nc2ccc(Cl)cn2)c1,/,-13%
O=C(OC(C(=O)NC1CCCC1)c1ccncc1)C1=Cc2ccccc2OC1 (centres undefined),-15%,-1%
COc1ccc(CNC(=O)c2ccc(NC(=O)N3CCCCc4ccccc43)cc2)c(OC)c1,i,-15%
COc1ccc(NC(=O)O/N=C/c2ccc(N(C)C)cc2)cc1,i,-10%
O=C(NCCCn1ccnc1)c1cc(C2CC2)on1,i,-11%
COC(=O)[C@H](C)NC(=O)NCCC1=CCCCC1,i,-10%
CCCCCC(C)NC(=O)CN1C(=O)NC(C)(c2ccc3ccccc3c2)C1=O (centres undefined),-21%,?
CC(C)C[C@H](NC(=O)c1[nH]cnc1C(=O)N[C@@H](C)c1ccccc1)C(=O)OC(C)(C)C,-22%,?
N=C(N)SCc1cccc2c(=O)cc(-c3ccccc3)oc12,?,?
COC(=O)C1(C(=O)OC)c2ccccc2CN(S(=O)(=O)c2ccc(C)cc2)C1CC(C)=O (centres undefined),-21%,3%
O=C(N/N=C/c1cccs1)c1ccc2ccccc2c1,i,-29%
CCCOc1ccc(C(=O)N2CCC(c3nc4ccccc4s3)CC2)cc1,?,-5%
CCc1c(C(=O)Nc2ccc(C)c(C)c2)[nH]c(C)c1C(C)=O,i,-14%
CSc1nnc(NC(=O)C2CCCCC2)s1,11%,-3%
CC(OC(=O)c1ccc(S(=O)(=O)NCc2ccco2)cc1)C(=O)Nc1ccc(Cl)cn1 (centres undefined),i,-12%
Cn1nc(CC(=O)Nc2ccc3c(c2)CCC3)c2ccccc2c1=O,?,?
CCN(Cc1ccccc1)C(=O)CN1C(=O)COc2ccc(S(=O)(=O)N3CCCCCC3)cc21,-14%,-8%&-12%
Cc1csc(-c2cc(C(=O)NCc3cc(C(F)(F)F)cc(C(F)(F)F)c3)n[nH]2)c1,-1%,-4%
CC[C@H](C)NC(=O)CCCCCn1c(=S)[nH]c2c([nH]c3ccc(OC)cc32)c1=O,-5%,-9%
CCCCC(=O)N=c1sc2c(OC)ccc(OC)c2n1C,i,-13%
COc1cccc(CN2C(=O)c3ccccc3Sc3ccc(C(=O)NCCc4ccc(C)cc4)cc32)c1,-4%,-5%
Cc1cc(C)c2c(N)c(C(=O)NN3CC(=O)N(c4cccc(Cl)c4)CC3=O)sc2n1,-29%,-19%
O=c1oc2ccccc2c(N2CCN(c3ccccc3F)CC2)c1CN1CCCC1,-8%,-12%
O=C(CCCOc1ccc(Cl)cc1)Nc1cccc(C(=O)O)c1,-1%,2%
CCOC(=O)c1sc2nccc(N(C)C)c2c1N=CNOCc1ccccc1,-27%,-14%
Cc1ccc2c(=O)c(C(=O)c3ccccc3)cn(CC(=O)Nc3ccc4c(c3)OCCO4)c2n1,-8%,-10%
COc1ccc(/C(N)=N/OC(=O)c2cccc([N+](=O)[O-])c2C)cc1,-4%,0%
CSc1cccc(CNC(=O)C2CCC(=O)N(CCCN3CCCC3=O)C2)c1 (centres undefined),-9%,-9%
CCc1nc2ccc(C(=O)Nc3cc(-c4ccccc4)ccc3OC)cn2c1N(C=O)CCC(C)C,-30%,-9%
CN(C)S(=O)(=O)c1ccc(Cl)c(C(=O)NNC(=O)Cn2ccc(C(F)(F)F)n2)c1,-16%,-16%
CCCS(=O)(=O)NC(=O)C1(C)CCN(C(=O)c2ccccc2OC(F)(F)F)C1 (centres undefined),10%,-4%
COc1cccc(CNC(=O)c2ccc(NC(=O)CC3SC(N4CCCC4)=NC3=O)cc2)c1 (centres undefined),0%,-5%
O=C(CSc1nnc(CNC(=O)C23CC4CC(CC(C4)C2)C3)n1-c1ccc(F)cc1)Nc1ccccc1,-3%,-27%
C[C@]12CCC3C(CC[C@H]4CCCC[C@]34C)C1CC[C@@]2(O)CNCCO (some centres undefined),-15%,-10%
N#C/C(=C(\O)c1ccco1)c1ccccn1,/,13%
O=C(CSc1ccccc1C(=O)O)NCC1CCCCC1,i,5%
CC1CCCCC1NC(=O)CSc1nc2ccccc2[nH]1 (centres undefined),i,-3%
Cc1ccc(C(=O)/C=C2\NCC(C)NC2=O)cc1 (centres undefined),-7%,0%
Cc1ccc(S(=O)(=O)CC(=O)c2cc(C)c(O)c(C)c2)cc1,-3%,-14%
O=S1CCCSC1c1cccnc1 (centres undefined),i,-14%
CC(=O)Nc1cc2nn(-c3ccccc3)nc2cc1Cl,i,-21%
COc1ccc(NC2CCCN(C(=O)CCN3CCCO3)C2)cc1 (centres undefined),?,-13%
COc1ccc(OCCCCOc2ccccc2Cl)cc1,-2%,0%
CCCCOc1ccc(OCCNC(=O)c2ccco2)cc1,-2%,12%
Cc1onc(-c2ccccc2)c1NC(=O)N(CCC#N)Cc1ccccc1,i,4%

# New compounds follow:
SMILES,Vaccinia mCherry,Vaccinia Venus
COc1ccc(/C=C2\SC(=O)N(CCc3nnc(N)s3)C2=O)cc1,-9%,-4%
Cn1c(=O)n(C)c2cc(NC(=O)CSc3nnc(-c4ccccc4O)n3-c3ccccc3)ccc21,/,-16%
CC(=O)Nc1ccccc1C(=O)OCc1ccccc1F,2%,-8%
O=S(=O)(Nc1cccc(S(=O)(=O)N2CCCCCC2)c1)c1ccccc1,-6%,3%
O=C(Nc1ccccc1Cc1ccccc1)c1ccc2c(c1)SC1=NS(=O)(=O)CCN12,i,-23%
O=C(NCC1OCCc2ccccc21)c1cc(COc2ccc(F)cc2Cl)on1 (centres undefined),-11%,-21%
CCOc1cc(C=O)ccc1OS(=O)(=O)c1ccc(NC(C)=O)cc1,i,-8%
Cc1ccc(S(=O)(=O)N/N=C/c2c(C)nn(-c3ccccc3)c2C)cc1,/,-4%
CCOc1ccc(NC(=O)CSc2nc3ccsc3c(=O)n2CCCCC(=O)O)cc1,-1%,-14%
CC(C)(C)C(=O)Nc1ccc(-c2nc3ccc(NC(=O)C(C)(C)C)cc3[nH]2)cc1,i,-14%
COc1ccccc1NC(=O)NNC(=O)c1ccc2c(c1)NC(=O)C(C)(C)O2,-25%,-24%
Cc1ccc(S(=O)(=O)c2nc(-c3ccc(F)cc3)oc2N2CCN(c3ccccc3)CC2)cc1,-15%,-8%
O=C(COC(=O)/C=C/c1cccc(C(F)(F)F)c1)NC(=O)NCc1ccccc1,i,-16%
N#CC(C#N)=Cc1cccn1-c1ccc(C(=O)O)cc1,3%,0%
COc1ccc(CNc2nc(-c3ccco3)nn2S(=O)(=O)c2ccc(Cl)cc2)cc1OC,-6%,0%
O[C@@H]1CN(CC2CCCCC2)[C@@H](c2ccc(Cl)cc2)C[C@H]1n1cc(-c2ccc(F)cc2)nn1,-5%,2%
Cc1c(Cl)c([N+](=O)[O-])nn1CCCC(=O)Nc1ccc(Cl)cc1Cl,-27%,-18%
O=[N+]([O-])c1ccc(C=NN2CCOCC2)s1,-17%,-11%
CCc1ccc(CNC(=O)c2ccc(Cn3c(=O)c4cccn4c4cccnc43)cc2)cc1,-9%,-19%
CCc1ccc(C(=O)COC(=O)c2cnccn2)cc1,/,4%

# Structures above that contain a nitro group on carbon (3):
SMILES,Vaccinia mCherry,Vaccinia Venus
COc1ccc(/C(N)=N/OC(=O)c2cccc([N+](=O)[O-])c2C)cc1,-4%,0%
Cc1c(Cl)c([N+](=O)[O-])nn1CCCC(=O)Nc1ccc(Cl)cc1Cl,-27%,-18%
O=[N+]([O-])c1ccc(C=NN2CCOCC2)s1,-17%,-11%

# (cont.)
SMILES,Vaccinia mCherry,Vaccinia Venus
Cc1cc(C(=O)NCc2nc(-c3ccccc3NC(=O)C3CCCO3)oc2C)nc(C)n1 (centres undefined),-17%,-21%
CCOC(=O)C1CCN(C(=O)COC(=O)c2ccc(=O)n(Cc3ccccc3)n2)CC1,-10%,-11%
Nc1cccn2c(-c3ccc(Cl)cc3)cnc12,-6%,15%
Cc1ccc(NC2(c3nnnn3-c3c(C)cccc3C)CCCCC2)cc1,-18%,-15%
CCC1CN(C(=O)N2CCC(C(=O)NCc3cc(OC)ccc3OC)CC2)c2ccccc2O1 (centres undefined),-4%,-11%
NC(=O)CC[C@@H]1NC(=O)[C@H](CO)NC(=O)c2cc([N+](=O)[O-])cc(I)c2NCCC[C@@H](C(N)=O)NC(=O)[C@H](Cc2ccc(O)cc2)NC1=O,-13%,-8%
NC(=O)CSc1nnc(-c2cc(-c3cccs3)nc3ccccc23)o1,?,1.6µM*
Cc1cccc(C)c1NC(=O)CCCCCNS(=O)(=O)c1ccccc1,-6%,0%
CCCNC(=O)c1ccc(COc2ccc(C(C)(C)C)cc2)o1,i,-24%
Cc1ccc(-n2c(SCC3CCCCO3)nnc2-c2ccco2)cc1 (centres undefined),-19%[1.46 µM],-28%
CN(C(=O)c1cc2ccccc2oc1=O)C1(C)CCS(=O)(=O)C1 (centres undefined),i,0%
O=C(COC(=O)c1cc(S(=O)(=O)N2CCOCC2)ccc1F)c1ccc[nH]1,i,-12%
O=C(CCCN1CCC(O)(c2cccc(C(F)(F)F)c2)CC1)c1ccc(F)cc1,i,-7%
COc1ccc(Nc2nc(N)nc(CSC(=S)N3CCN(C)CC3)n2)cc1,i,-8%
COc1ccc(OC)c(NC(=S)NN2CCOCC2)c1,i,-7%
O=[N+]([O-])c1cc(Cl)cc(/C=N/Nc2nc3ccccc3s2)c1O,-11%,-16%
CCOC(=O)[C@]12CCC=C1N(Cc1ccc3c(c1)OCO3)C(=O)[C@H](CC(=O)N1CCCC1)C2,-8%,-6%
Cc1nc(N2CCCCC2)nc(N2CCCCC2)c1C=O,-10%,-7%
O=S1(=O)CCC(N=Cc2ccc(-c3ccc(Cl)cc3)o2)C1 (centres undefined),-1%,-8%
COCCn1c(N)c(N(Cc2ccccc2)C(=O)c2oc3ccccc3c2C)c(=O)[nH]c1=O,i,-9%
CS(=O)(=O)N1CCC(C(=O)Nc2c(F)cccc2F)CC1,i,-4%
Cc1ccc(NC(=O)CSc2nc(C)c(C)c(C)n2)cc1S(=O)(=O)N1CCOCC1,-18%,-6%
CCCCN(CC)C(=O)Cn1cc2c(n1)-c1c(oc(C(=O)N3CCCC3)c1C)CC2,-20%,-16%
COc1ccc(C(=O)NC2CC(C)(C)NC(C)(C)C2)cc1OC,i,-12%
O=C(Cn1c(=O)[nH]n(-c2ccccc2)c1=O)N1CCCc2ccccc21,i,-16%
Cc1ccccc1NC(=O)CSc1nnc(-c2cccs2)o1,-11%,0%
O=C(NC(=S)Nc1ccc(NC(=O)c2cccs2)cc1)c1ccco1,-9%,?
CCCCN(C)CCCNC(=O)Cn1ncc2c3ccccc3n(Cc3ccccc3)c2c1=O,-2%,-15%
C=CCOC(=O)C1=C[C@@H](c2ccccc2)[C@H](CCCO)[C@@H](OCC)O1,-2%,?
CCc1c(O)nc(SCC(=O)Nc2cc(C)on2)n(-c2ccccc2)c1=O,i,-13%
O=S(=O)(Nc1cccc(C(F)(F)F)c1)c1ccc(NS(=O)(=O)c2ccc3c(c2)OCCO3)cc1,-2%,-6%
Brc1c(C[n+]2ccccc2)nc2ccccn12,i,-7%
Cc1ccc(S(=O)(=O)N(C)CCCC(=O)NC(C)(C)CO)cc1,i,0%
COc1ccc(CCCc2nnc(SCC(=O)Nc3ccc(C)cc3C)o2)cc1,-11%,-4%
